# Compound activity deposited in PubChem by National Center for Advancing Translational Sciences (NCATS).
# 12-hLO inh – inhibitors of human 12-lipoxygenase (ALOX12); purified 12-hLO, xylenol orange hydroperoxide absorbance; Potency, µM (top dose mostly 57.1 µM), without a hit: at the top dose activity change, negative = inhibition, actives largely listed as inhibitors; actives 0.12% (n = 150,000); AID 1452; active = well fitted inhibition curve with a large enough effect; inconclusive = small, poorly fitted or top-dose-only effect; also: potency is read from the fitted curve at half-maximal effect; nearly all actives have a fitted effect of over 55% in size; many of its hits are not listed in these tables
# Target sequence (P18054 whole entry, looked up): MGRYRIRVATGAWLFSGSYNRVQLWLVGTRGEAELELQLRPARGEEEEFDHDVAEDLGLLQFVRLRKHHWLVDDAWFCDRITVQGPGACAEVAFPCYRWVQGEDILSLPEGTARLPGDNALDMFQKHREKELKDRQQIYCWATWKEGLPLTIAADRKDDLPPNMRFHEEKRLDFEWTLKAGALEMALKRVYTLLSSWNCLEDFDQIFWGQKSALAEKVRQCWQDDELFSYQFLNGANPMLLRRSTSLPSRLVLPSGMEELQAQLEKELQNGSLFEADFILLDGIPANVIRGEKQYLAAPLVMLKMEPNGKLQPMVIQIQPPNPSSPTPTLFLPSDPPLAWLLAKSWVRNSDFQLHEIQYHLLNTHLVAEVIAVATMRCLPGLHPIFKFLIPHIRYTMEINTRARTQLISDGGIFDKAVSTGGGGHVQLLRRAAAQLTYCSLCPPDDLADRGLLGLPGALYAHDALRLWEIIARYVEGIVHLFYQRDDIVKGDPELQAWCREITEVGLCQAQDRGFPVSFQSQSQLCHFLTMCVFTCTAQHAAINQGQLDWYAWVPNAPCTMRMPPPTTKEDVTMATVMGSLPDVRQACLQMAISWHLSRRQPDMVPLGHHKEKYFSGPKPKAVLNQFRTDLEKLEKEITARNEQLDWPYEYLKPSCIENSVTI
#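 Purified human 12hLO (150 nM final) was preincubated with compounds for 15 min at room temperature in 25 mM Hepes pH 7.0, 0.01% Triton X-100, then reacted with 40 uM arachidonic acid for 30 min. Hydroperoxide was detected with ferrous iron/xylenol orange.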
# IMPase cell inh – cell-permeable inhibitors of inositol monophosphatase (IMPase) | 120,000 tested, under 10 active | P97697 | AID 901 | inhibition (IP1 accumulation), % at 46.1 µM | CHO-M1 cells, IP1 accumulation, HTRF TR-FRET ratio; active = well fitted curve in the direction sought with a large enough effect in the signal ratio, not every such curve was filed as active; inconclusive = small, poorly fitted or top-dose-only effect, or a change in a side signal; inactive = no such curve, though single readings can be large or run the other way; the % refers to the signal ratio;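 also: cells stimulated with carbachol in lithium chloride buffer; plate controls were DMSO basal wells for no effect and reference inhibitor wells for full effect; higher means more IMPase inhibition seen as more IP1 and lower FRET ratio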
# Target sequence (P97697 whole entry, looked up): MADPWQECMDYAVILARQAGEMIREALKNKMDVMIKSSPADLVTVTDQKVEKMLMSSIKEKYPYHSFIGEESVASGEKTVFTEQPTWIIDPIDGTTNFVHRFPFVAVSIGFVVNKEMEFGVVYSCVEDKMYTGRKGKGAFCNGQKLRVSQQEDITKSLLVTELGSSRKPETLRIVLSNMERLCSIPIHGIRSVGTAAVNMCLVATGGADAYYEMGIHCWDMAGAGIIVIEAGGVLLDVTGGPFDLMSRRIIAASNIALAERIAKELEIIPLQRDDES
#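 The IP-One HTRF competitive assay in carbachol-stimulated CHO-M1 cells quantifies cellular IP1. Compounds spanned up to 46 uM final, and activity is expressed as AC50 from concentration-response fits of the ratio and donor data.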
# PNC assembly inh – inhibitors of perinucleolar compartment assembly | PC3M PTB-GFP, PNC prevalence imaging, 16 h; active compounds read low | activity change (PNC), negative = inhibition, % at 10 µM | actives 3.1% (n = 140,000);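 active = readout at or below -70, meaning at least 70% loss of cells showing the perinucleolar compartment, a nuclear body marking cancer cells; inconclusive = readout between -30 and a set limit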;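 also: plate controls were DMSO wells for no effect and camptothecin positive control wells for full effect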
#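 PC3M cells stably expressing PTB-GFP, 750–1000 cells/well, treated 16 h at 37 °C with compound (23 nl of library stock), in duplicate. After paraformaldehyde fixation and Hoechst stain, imaged at 20x; PNC prevalence scored by image analysis.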
# * marks the source's active call; other numbers are inactive results; ? = inconclusive; . = no result given; [ ] = another dose, or the depositor's remark. Unless noted, % is scaled to controls: 0 for no effect and ±100 for the full control effect. A portion of the library; rates above refer to the full screens.
1	CCCSc1nc(N)c2c3c(sc2n1)CN(C)CC3
2	Cc1ccsc1C(=O)N/N=C/C=C/c1ccccc1[N+](=O)[O-]
3	CCC(C)(C)n1nnnc1C(c1ccc(C)cc1)N1CCN(Cc2cccnc2)CC1 (stereo not given)
4	CSc1ccc(S(=O)(=O)NCCSc2ccccn2)cc1
5	COc1ccccc1CC(=O)Nc1ccc(-c2noc(COc3ccc(Cl)c(C)c3)n2)cc1
6	Cc1ccccc1Cn1c(=O)n(Cc2ccco2)c(=O)c2ccccc21
Compound	1	2	3	4	5	6
12-hLO inh	6%	-1%	0%	6%	2%	-7%
IMPase cell inh	3	5	3	1	5	?
PNC assembly inh	11	?	18	28	10	?

7	O=C(c1ccccc1C(F)(F)F)N1CCN(S(=O)(=O)c2ccccc2)CC1
8	Nc1c(-c2ccccc2)cnn1C1CCS(=O)(=O)C1 (stereo not given)
9	Cc1ccc(OCc2nnc(SCC(=O)Nc3ccc4c(c3)OCO4)n2C)cc1
10	COCCn1c(=N)c(C(=O)NCc2ccco2)cc2c(=O)n3ccccc3nc21
11	CCOc1cc(S(=O)(=O)N2CCCCC2)ccc1F
12	CCN(CCNC(=O)C1CC(=O)N(CCc2ccccc2)C1)c1ccccc1 (stereo not given)
Compound	7	8	9	10	11	12
12-hLO inh	-5%	6%	-6%	-5%	-3%	-3%
IMPase cell inh	0	-3	1	-4	3	7
PNC assembly inh	?	-12	?	12	?	23

13	CC(C)Cn1c(NCCN(C)C)nc2c1c(=O)[nH]c(=O)n2C
14	COC(=O)c1cc(NC(=O)N2c3ccccc3Sc3ccccc32)cc(C(=O)OC)c1
15	CC(C)c1ccc(OCC(=O)NC(=S)Nc2ccc3c4c(cccc24)CC3)cc1
16	CN1c2cc3c(cc2N=C(c2ccc(C(=O)O)cc2)c2ccccc21)C(C)(C)CCC3(C)C
17	CCN(CC)S(=O)(=O)c1ccc(C(=O)N2CCCCC2)cc1
18	N#Cc1c(N)oc(-c2ccco2)c1-c1ccco1
Compound	13	14	15	16	17	18
12-hLO inh	0%	?	-18%	-1%	2%	-16%
IMPase cell inh	?	2	?	.	-2	-1
PNC assembly inh	?	37	3	.	26	-17

# From no. 2 up to 18, as listed above:
2	Cc1ccsc1C(=O)N/N=C/C=C/c1ccccc1[N+](=O)[O-]
3	CCC(C)(C)n1nnnc1C(c1ccc(C)cc1)N1CCN(Cc2cccnc2)CC1 (stereo not given)
4	CSc1ccc(S(=O)(=O)NCCSc2ccccn2)cc1
5	COc1ccccc1CC(=O)Nc1ccc(-c2noc(COc3ccc(Cl)c(C)c3)n2)cc1
6	Cc1ccccc1Cn1c(=O)n(Cc2ccco2)c(=O)c2ccccc21
7	O=C(c1ccccc1C(F)(F)F)N1CCN(S(=O)(=O)c2ccccc2)CC1
8	Nc1c(-c2ccccc2)cnn1C1CCS(=O)(=O)C1 (stereo not given)
9	Cc1ccc(OCc2nnc(SCC(=O)Nc3ccc4c(c3)OCO4)n2C)cc1
Compound	2	3	4	5	6	7	8	9
12-hLO inh	-1%	0%	6%	2%	-7%	-5%	6%	-6%
IMPase cell inh	5	3	1	5	?	0	-3	1
PNC assembly inh	?	18	28	10	?	?	-12	?

10	COCCn1c(=N)c(C(=O)NCc2ccco2)cc2c(=O)n3ccccc3nc21
11	CCOc1cc(S(=O)(=O)N2CCCCC2)ccc1F
12	CCN(CCNC(=O)C1CC(=O)N(CCc2ccccc2)C1)c1ccccc1 (stereo not given)
13	CC(C)Cn1c(NCCN(C)C)nc2c1c(=O)[nH]c(=O)n2C
14	COC(=O)c1cc(NC(=O)N2c3ccccc3Sc3ccccc32)cc(C(=O)OC)c1
15	CC(C)c1ccc(OCC(=O)NC(=S)Nc2ccc3c4c(cccc24)CC3)cc1
16	CN1c2cc3c(cc2N=C(c2ccc(C(=O)O)cc2)c2ccccc21)C(C)(C)CCC3(C)C
17	CCN(CC)S(=O)(=O)c1ccc(C(=O)N2CCCCC2)cc1
Compound	10	11	12	13	14	15	16	17
12-hLO inh	-5%	-3%	-3%	0%	?	-18%	-1%	2%
IMPase cell inh	-4	3	7	?	2	?	.	-2
PNC assembly inh	12	?	23	?	37	3	.	26

18	N#Cc1c(N)oc(-c2ccco2)c1-c1ccco1
Compound	18
12-hLO inh	-16%
IMPase cell inh	-1
PNC assembly inh	-17

# Next section.
19	CCn1c(Cc2ccccc2)nnc1SCC(=O)Nc1ccc(S(N)(=O)=O)cc1
20	CC(=O)c1ccc(OCC(=O)NC2CCS(=O)(=O)C2)cc1 (stereo not given)
21	O=C(Nc1ccncc1)c1ccc2c(c1)C(=O)N(C1CCCCC1)C2=O
22	O=C(N[C@@H](Cc1ccccc1)C(=O)NC1CCCCCC1)c1ccco1
23	CC1=C(C(=O)Nc2cc(C)ccn2)C(c2ccc(C)cc2)C2=C(CCCC2=O)N1 (stereo not given)
24	C1CN(c2nc3nonc3n3nnnc23)CCO1
Compound	19	20	21	22	23	24
12-hLO inh	2%	0%	-2%	-2%	-3%	0%
IMPase cell inh	2	-10	8	4	0	-18
PNC assembly inh	20	8	23	13	?	65

25	CC(=O)Nc1ccc2c(c1)C(=O)N(C1CCCCC1)C2=O
26	Cc1c(C(=O)Nc2ccc(Cl)cc2)c2ccccn2c1C(=O)c1ccc([N+](=O)[O-])cc1
27	O=S(=O)(Nc1ccc2c(c1)OCCO2)c1ccc2oc3ccccc3c2c1
28	O=C(Cn1c(=O)n(Cc2ccco2)c(=O)c2ccccc21)Nc1cccc(Cl)c1
29	CCN(CC)C(=O)CSc1nc2cc(OC)c(OC)cc2c(=O)n1Cc1ccc(Cl)cc1
30	O=C(O)c1ccc(NS(=O)(=O)c2ccc3c(c2)OCCO3)cc1
Compound	25	26	27	28	29	30
12-hLO inh	-4%	-3%	-16%	-11%	-7%	5%
IMPase cell inh	0	-5	9	37[activator]	8	2
PNC assembly inh	-22	40	38	-4	3	-14

# One compound at a time, from the list above:
# Record of `Cc1c(C(=O)Nc2ccc(Cl)cc2)c2ccccn2c1C(=O)c1ccc([N+](=O)[O-])cc1` → 12-hLO inh = -3%; IMPase cell inh = -5; PNC assembly inh = 40
# Record of `CC(=O)Nc1ccc2c(c1)C(=O)N(C1CCCCC1)C2=O` → 12-hLO inh = -4%; IMPase cell inh = 0; PNC assembly inh = -22

# Next records.
31	CCOC(=O)C1CCN(Cc2ccc(OC)c(C)c2OC)CC1
32	CCC(=O)NC(=S)Nc1cccc(NC(=O)c2ccc(Cl)cc2Cl)c1
33	COc1ccc(NC(=O)CN2CCCN(S(=O)(=O)c3ccc(F)cc3)CC2)cc1
34	CCNC(=O)NC(=O)COC(=O)CNC(=O)COc1ccccc1
35	COc1cc(Br)c(CC(=O)O)cc1OC
36	COCCCNC(=O)C1CC(=O)N(CCc2ccccc2)C1 (stereo not given)
Compound	31	32	33	34	35	36
12-hLO inh	-4%	-23%	-2%	-6%	-2%	1%
IMPase cell inh	8	1	6	-1	-16	-4
PNC assembly inh	3	-14	0	27	23	25

37	CC(c1ccccc1)C1CC(=O)N(C2CCCCC2)C1=O (stereo not given)
38	c1coc(Cn2nnnc2CN2CCN(C3CCCCC3)CC2)c1
39	O=C(NC(NC(=S)Nc1ccccc1C(=O)O)C(Cl)(Cl)Cl)c1cccc([N+](=O)[O-])c1 (stereo not given)
40	Cc1nn(-c2ccc3nnc(Br)n3n2)c(C)c1Br
41	O=C1CCCC(O)=C1C=Nc1ccc2c(c1)oc1ccccc12
42	Cc1c(C(=O)Nc2ccc(Cl)cc2)c2ccccn2c1C(=O)c1ccccc1
Compound	37	38	39	40	41	42
12-hLO inh	4%	1%	-13%	-2%	4%	-10%
IMPase cell inh	3	-3	-3	4	5	4
PNC assembly inh	-12	14	129	12	41	-12

43	Cc1ccc(OCC(=O)Nc2sc3c(c2C#N)CCC3)cc1
44	Cc1sc2ncn(CC(=O)NCCCC(=O)N3CCN(c4ncccn4)CC3)c(=O)c2c1C
45	CC(C(=O)NCC1(c2ccccc2)CCCC1)N1CCCC1 (stereo not given)
46	COc1ccc(CC(=O)c2ccccc2C(=O)O)cc1
47	O=C(CSc1ncn[nH]1)Nc1c(F)cc(F)cc1Br
48	C/C(N)=C(/C#N)C(=O)COC(=O)CCS(=O)(=O)c1ccccc1
Compound	43	44	45	46	47	48
12-hLO inh	-6%	1%	4%	-3%	-2%	7%
IMPase cell inh	-1	14	15	-7	-3	-5
PNC assembly inh	?	?	3	-5	-4	-20

49	Cc1cc(C)c(NC(=O)C2CCCN2C)c(C)c1 (stereo not given)
50	CCC(C)(C)n1nnnc1C(c1ccc(C)cc1)N1CCCC1 (stereo not given)
51	Cc1ccc(-c2cc(C(=O)Nc3ccc4c(c3)OCCO4)c3ccccc3n2)cc1
52	Cc1c(C2CC(=O)N(c3ccccc3)C2=O)[nH]n(-c2ccccc2)c1=O (stereo not given)
53	CCC(C)c1ccc(NC(=S)NCc2cccs2)cc1 (stereo not given)
54	CC(=O)NS(=O)(=O)c1cccnc1Nc1ccc(Cl)c(Cl)c1
Compound	49	50	51	52	53	54
12-hLO inh	4%	7%	0%	-14%	?	0%
IMPase cell inh	7	-3	1	10	-2	-6
PNC assembly inh	19	?	29	-12	-23	?

55	Cc1ccc(C(=O)NC(=S)Nc2ccc(S(=O)(=O)N(C)c3ccccc3)cc2)cc1
56	COCCn1c(SCc2nc3cc(OC)c(OC)cc3c(=O)[nH]2)nnc1-c1ccncc1
57	CCN(c1ccc(NC(=O)COC(=O)CCC(=O)c2ccc(F)cc2)cc1)C(C)C
58	O=C(NCCCO)c1nnc(Cc2c(F)cccc2Cl)o1
59	Cc1ccc2[nH]c(=O)c(-c3noc(C(C)C)n3)cc2c1
60	O=C(O)CN1C(=O)SC(Nc2ccc(C(=O)O)cc2)C1=O (stereo not given)
Compound	55	56	57	58	59	60
12-hLO inh	-3%	-2%	0%	6%	-4%	5%
IMPase cell inh	0	9	3	-1	-5	3
PNC assembly inh	?	2	-30	-21	35	19

61	CN(C)C=NC(=O)c1ccc(N2CCN(c3ncc(C(F)(F)F)cc3Cl)CC2)cc1
62	CCOC(=O)N/N=C(/C)c1ccc([N+](=O)[O-])o1
63	COc1cc2c(cc1OC)CN(C(=O)CCCN1C(=O)c3ccccc3C1=O)CC2
64	CCOC(=O)c1cc(C#N)c(Oc2cccc(C(F)(F)F)c2)nc1-c1ccccc1
65	CC(C)c1nc(N2CCN(C(=O)c3ccco3)CC2)c2c3c(sc2n1)CCCC3
66	CC(c1cc2ccccc2s1)N(O)C(N)=O (stereo not given)
Compound	61	62	63	64	65	66
12-hLO inh	-4%	0%	0%	5%	-5%	-4%[0.00818 µM]
IMPase cell inh	5	-3	0	6[1.84 µM]	-3	.
PNC assembly inh	10	45	?	-25	-16	.

67	Nc1nc(N)nc(-c2ccccc2O)n1
68	Cc1cccc(C)c1NC(=O)Cn1nc(-c2ccccc2)nc1-c1ccccc1
69	Cc1cc(O)c(/C=N/Nc2ccccc2Cl)c(=O)o1
70	Cc1cc(/N=C/C=C2\N(C)c3ccccc3C2(C)C)n(CCC#N)n1
71	COc1cccc2[nH]c(-c3ccccn3)nc12
72	COc1cccc(OCC(=O)NNC(=O)c2cccs2)c1
73	CCN(c1ccccc1)S(=O)(=O)c1ccc(NC(=S)NC(=O)c2ccc(Br)o2)cc1
74	CCOC(=O)c1c(C=O)c(C)n(Cc2ccc(Cl)cc2)c1C
75	CSc1nc(Oc2ccccc2)c2sccc2n1
Compound	67	68	69	70	71	72	73	74	75
12-hLO inh	-5%	0%	-25%	-12%	-8%[11.4 µM]	4%	-8%	-16%	-2%
IMPase cell inh	-13	8[1.84 µM]	19	-4	.	0	4	4	2[1.84 µM]
PNC assembly inh	1	-13	19	-15	.	37	56	13	24
